# HNF4A DNA FP: change in binding of human HNF4 alpha to DNA | P41235 | HNF4a-FITC DNA binding, fluorescence polarization, 1 h | activity change, % at 10 µM | hit rate 0.3% among 360,000 | AID 1224865; in the data active = activity change above about 30%, passing the limit was not always enough;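 note: controls were the assay level and a saturating level of protein; the project sought stronger binding though the title names inhibitors; some compounds called inactive have numbers as strong as hits; positive values seem to mean higher polarization but the record does not say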
# Target sequence (P41235 whole entry, looked up): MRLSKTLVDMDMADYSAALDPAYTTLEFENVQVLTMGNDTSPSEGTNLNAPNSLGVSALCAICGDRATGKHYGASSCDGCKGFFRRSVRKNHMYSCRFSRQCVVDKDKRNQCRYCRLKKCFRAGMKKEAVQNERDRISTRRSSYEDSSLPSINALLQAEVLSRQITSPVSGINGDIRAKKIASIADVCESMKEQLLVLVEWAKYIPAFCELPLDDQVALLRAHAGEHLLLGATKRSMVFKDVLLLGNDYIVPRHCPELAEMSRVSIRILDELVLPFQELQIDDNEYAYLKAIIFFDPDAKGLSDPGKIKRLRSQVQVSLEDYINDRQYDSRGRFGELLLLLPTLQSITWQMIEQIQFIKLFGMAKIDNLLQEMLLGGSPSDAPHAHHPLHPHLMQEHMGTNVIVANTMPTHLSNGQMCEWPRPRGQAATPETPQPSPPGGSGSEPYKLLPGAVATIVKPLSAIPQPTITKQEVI
# Ecoli growth: E. coli growth inhibition; OD600 absorbance (test concentration not listed); hit rate 0.21% among 330,000; Escherichia coli growth, OD600, 23 h; stronger effect = lower value; AID 1053175;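 active = OD600 absorbance below the run mean of sample wells minus 3.6 SD, in any replicate, cut at about 0.56 in these data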;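 note: stock transfer was 300 nL into about 60 µL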
# RanGTP-Impb inh: disruptors of Ran-importin-beta complex formation – biochemical, FRET, CFP-Ran, YFP-importin-beta, homogeneous, primary screen; hit rate 1.1% among 300,000; inhibition, % (no concentration beside the values); cell-free CFP-Ran/YFP-importin-beta FRET ratio; AID 2216;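 active = most replicates above 15%; inconclusive = exactly half above 15%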;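 note: 0% = DMSO wells and 100% = Ran loaded with GDP instead of GTP; wells of about 40 µL received 100 nL stock; the first replicate is given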
# FGF22 binding: shifts melting point of recombinant human FGF22. hit rate 1.5% among 340,000. Q9HCT0. AID 651658. calls only at 9.99 µM. recombinant FGF22 thermal shift, SYPRO orange fluorescence; percent of sucrose octasulfate shift, DMSO zero;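 active = melting point raised past a set limit in the mean and every replicate; inconclusive = no clear call; three in four hits are not shown here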
# MLL AF4-AF9 inh: inhibitors of human MLL-AF4/AF9 interaction; AlphaScreen, biotin-AF4 peptide binding to FLAG-AF9; inhibition, % at 10 µM; hit rate 0.47% among 350,000;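 active = every replicate reaching a set inhibition limit, whatever the replicate mean, cut at about 25% in these data; inconclusive = mean inhibition reaches that limit but some replicates miss it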;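 note: 0% = plate neutral control median and 100% = total signal loss; the record names both 10 and 1 µM as test concentration; the first replicate is given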
# Target sequence (P42568 whole entry, looked up): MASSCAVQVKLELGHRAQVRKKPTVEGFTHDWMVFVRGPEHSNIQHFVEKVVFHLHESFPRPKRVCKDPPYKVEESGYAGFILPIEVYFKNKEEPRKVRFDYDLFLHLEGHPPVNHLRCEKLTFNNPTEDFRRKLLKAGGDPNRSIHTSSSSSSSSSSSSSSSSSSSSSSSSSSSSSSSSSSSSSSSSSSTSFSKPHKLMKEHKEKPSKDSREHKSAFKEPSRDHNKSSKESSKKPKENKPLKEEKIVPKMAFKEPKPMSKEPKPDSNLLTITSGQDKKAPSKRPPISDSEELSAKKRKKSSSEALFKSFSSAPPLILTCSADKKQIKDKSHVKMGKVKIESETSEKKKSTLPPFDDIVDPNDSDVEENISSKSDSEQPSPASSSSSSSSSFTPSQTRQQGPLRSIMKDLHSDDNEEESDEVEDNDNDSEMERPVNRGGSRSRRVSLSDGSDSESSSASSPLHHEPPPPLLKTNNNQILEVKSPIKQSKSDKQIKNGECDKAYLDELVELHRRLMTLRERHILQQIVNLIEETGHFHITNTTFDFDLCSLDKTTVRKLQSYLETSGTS
# UCH37 DUB inh: inhibitors of human deubiquitinating enzyme UCH37. Q9Y5K5. purified proteasome/UCH37, Ub-AMC cleavage fluorescence. inhibition, % (no concentration beside the values). hit rate 0.33% among 330,000;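 active = mean of two replicates above 20%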;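 note: 0% = compound-free wells with enzyme and 100% = wells lacking proteasome; stock transfer was 100 nL into about 20 µL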
#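 Material: Human UCH37 enzyme supplied as purified proteasome complex | Schedule: 30 min preincubation with enzyme, 25 min cleavage at room temperature | Detection: AMC fluorescence 355/460 nm | Measure: % inhibition of Ub-AMC cleavage fluorescence | Controls: Wells without proteasome as full block, compound-free enzyme plus substrate as uninhibited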
# Vif A3G: inhibitors of Vif binding to APOBEC3G peptide, primary screen, biochemical, TR-FRET, GST-Vif 1-94, biotin-A3G peptide, dose response retest (AID 1117319). TR-FRET GST-Vif / biotin-A3G peptide binding; higher % means a stronger effect; test concentration not given here; strong numbers were not always called active. inhibition, %, or IC50 in µM where a hit was titrated. hit rate 0.57% among 260,000;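 active = above the screen mean plus three standard deviations and confirmed in dose response; inconclusive = results disagree or hit not tested in dose response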;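 note: Vif residues 1-94 fused to GST binding biotinylated APOBEC3G peptide 110-148; 0% = full assay without inhibitor and 100% = GST in place of GST-Vif; retest series ran down from 100 µM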
# An asterisk follows results filed as active; i = inactive; ? = inconclusive; · = not tested or not shown; & = joins results of further samples. These rows are one share of the data; the hit share may differ from the screen's.
# Screens in order: HNF4A DNA FP	Ecoli growth	RanGTP-Impb inh	FGF22 binding	MLL AF4-AF9 inh	UCH37 DUB inh	Vif A3G
> COc1cc(/C=N/N2C(C)CCCC2C)cc(Br)c1O (stereo not given)
  -1.5	·	-6.5	i	0.3	·	?
> CCC1CCCCN1C(=O)COc1cc(=O)n(C)c2ccccc12 (stereo not given)
  5.3	0.76	2.5	i	-2.9	0.8	1.2%
> Cc1cc(NC(=O)CSc2nc3ccccc3[nH]2)no1
  -2.1	0.673	-3.0	·	·	1.7	13.8%
> COC(=O)CN1C(=S)N(c2ccc(OC)cc2)C(=O)/C1=C/c1ccc(N2CCOCC2)cc1
  60.8*	0.74	-37.4	·	·	8.1	6.9%
> CSC1=NCCN1C(=O)Cc1cccc2ccccc12
  -1.3	0.727	0.7	i	-0.4	-4.8	-5.0%
> O=C(NC1CC2CCCC(C1)N2Cc1ccccc1)C1CCCCC1 (stereo not given)
  -1.9	0.695	?	·	-1.4	-2.4	-1.1%
> COc1ccc(S(=O)(=O)N2CCc3ccccc32)cc1C(=O)Nc1cc(S(C)(=O)=O)ccc1Cl
  6.4	0.668	·	i	0.2	4.5	·
> COc1ccc(OC)c(S(=O)(=O)Oc2ccc(N)c3ccccc23)c1
  6.3	0.638	?	i	3.7	5.8	·
> COC(=O)c1cc(NC(=O)c2cc(C(C)(C)C)nn2Cc2cccc(C)c2)ccc1N1CCOCC1
  6.2	0.638	3.6	i	1.6	-15.8	·
> Cc1ccc(C2C(C#N)=C(N)N(c3ncn[nH]3)C3=C2C(=O)CC(C)(C)C3)cc1 (stereo not given)
  -2.5	0.647	6.1	·	·	2.1	4.7%
> Oc1ccc(-c2cc(-c3ccc(O)cc3)nc(-c3ccccc3)n2)cc1
  -2.4	0.68	-2.9	i	0.8	-6.4	-7.7%
> CC(C)Oc1ccccc1OC1(C)CCN(Cc2ccc(OC(F)(F)F)cc2)C1 (stereo not given)
  -1.9	·	·	i	-1.7	·	·
> O=C(NCc1ccco1)c1cc([N+](=O)[O-])cc([N+](=O)[O-])c1
  2.2	0.663	-1.1	·	·	4.1	12.7%
> CC(C)Cc1csc(NC(=O)c2ccccc2Cl)c1C(=O)O
  4.1	0.658	-4.1	·	·	3.9	29.8%
> CCCn1c(SCC(=O)Nc2ccccc2C(=O)NC2CC2)n[nH]c1=O
  -0.5	0.682	·	i	-1.2	1.8	-2.3%
> C/C(=N\NC(=O)c1ccc(CN2CCOCC2)cc1)c1ccc([N+](=O)[O-])cc1
  1.2	·	2.2	i	0.4	·	·
> C[C@H]1C(=O)N(C)CCN1C(=O)c1ccccc1OC1CCN(S(C)(=O)=O)CC1
  1.9	0.609	3.5	i	-2.9	-1.5	-8.2%
> O=C(/C(C=Nc1cccc(C(F)(F)F)c1)=C(/O)c1ccco1)C(F)(F)F
  -3.7	0.723	0.8	·	·	3.8	24.9%
> CCOc1ccccc1Oc1coc2cc(OC(=O)c3ccco3)ccc2c1=O
  0.0	0.669	0.6	·	·	-127.7	6.4%
> O=C(OCc1ccc(Cl)cc1)c1ccccc1C(=O)c1ccccc1
  5.7	0.632	0.0	·	·	1.7	-4.0%
> CCCCN1C(=O)/C(=C2/Sc3ccccc3N2C)S/C1=N\c1ncn[nH]1
  45.5*	·	?	i	1.4	·	5.6%
> CCC1CCCCN1CCCNC(=O)c1ccc2nc(N3CCC(C)CC3)sc2c1 (stereo not given)
  -1.2	0.624	-1.0	i	4.5	-1.6	·
> O=C(Nc1ccc(F)c(Cl)c1)C1Cc2c(-c3ccc(Cl)cc3)ccnc2O1 (stereo not given)
  2.7	·	·	i	-1.6	·	·
> O=C(Cc1cccs1)Nc1nnc(COc2ccccc2)s1
  -3.0	0.687	-3.1	·	·	4.8	12.2%
> Cc1ccc(SCCN2CCN(C)CC2)cc1
  -2.5	0.652	2.9	i	-8.6	2.7	·
> COC(=O)c1cn(C(=O)c2ccccc2)c2ccccc12
  -2.2	0.7	-0.4	i	-3.6	3.7	0.8%
> COCCCN(C(=O)c1ccco1)c1nc(-c2cc(OC)ccc2OC)cs1
  -1.3	0.696	1.5	·	·	1.8	5.1%
> CC1CCC2(CC1)NC(=O)N(CC(=O)Nc1ccc3c(c1)OCCO3)C2=O (stereo not given)
  0.6	0.616	-3.3	i	1.8	1.8	·
> CN(C)/C=C/C(=O)c1cnc(-c2cccc(Cl)c2)s1
  0.9	0.662	-4.6	i	-0.3	9.0	·
> CC[C@@]1(O)C(=O)OCc2c1cc1n(c2=O)Cc2cc3c(CN(C)C)c(O)ccc3nc2-1
  -136.4	0.669	-224.2	i	-6.5	-62.4	·
> CN(CC(=O)Nc1ccc(S(N)(=O)=O)cc1)C1CCCCC1
  2.6	0.696	-1.3	i	-1.1	4.5	·
> CCOC(=O)C1(Cc2ccccc2)CCN(Cc2cccc3c2OCO3)CC1
  1.2	0.698	-0.4	i	3.1	-0.5	0.9%
> CCOc1ccccc1C(=O)NCC(=O)OCCCOC(=O)CNC(=O)c1ccccc1OCC
  -3.8	0.69	-0.2	i	-0.3	1.7	0.3%
> O=C(Nc1ccc2ccccc2c1)c1ccccc1Cl
  -1.6	·	·	i	-3.3	·	-3.8%
> CCOC(=O)c1c(N/C=C(\C#N)c2nc(-c3ccc(OC(C)=O)cc3)cs2)sc2c1CCC2
  3.8	0.724	·	i	6.5	-1.6	·
> COc1ccc(S(=O)(=O)N2CCCC2CNC(=O)C(=O)NCc2ccccc2)cc1 (stereo not given)
  2.6	0.707	0.3	i	-14.9	2.2	-0.6%
> CCCCc1ccc(NC(=O)CSc2nc(=O)n3cc(C)ccc3n2)cc1
  -0.6	0.703	0.2	i	-2.2	-3.1	-38.2%
> C=CCN=c1scc(-c2ccc(F)cc2)n1/N=C/c1ccccn1
  -5.5	·	-3.7	i	9.9	·	·
> COc1cccc(C(=O)CSc2nnc(CNc3nc(-c4ccccc4)cs3)n2C)c1
  -1.4	0.73	-3.4	·	·	2.9	-12.8%&-6.7%
> S=c1[nH]c2cc(Cl)c3cccnc3c2o1
  2.8	·	5.0	i	-2.5	·	-3.9%
> O=C1CCC(C(=O)Nc2cccc(S(=O)(=O)N3CCOCC3)c2)N1 (stereo not given)
  3.9	0.684	5.3	·	-1.4	-3.5	13.7%
> O=C(N/N=C/c1ccncc1)c1cccs1
  -1.1	·	0.9	·	·	·	4.2%
> CSc1nnc(C(C)(C)C)c(=O)n1/N=C/c1c(O)ccc2ccccc12
  1.8	·	0.0	i	-3.1	·	-10.4%
> CCn1ccnc1CN(C)Cc1cn[nH]c1-c1ccc(F)cc1F
  -2.8	0.723	-5.4	i	0.1	2.1	-5.5%
> O=C(CCCOc1ccccc1)NNC(=O)c1ccc(Cl)cc1
  2.4	0.629	·	i	-4.2	2.5	·
> Cc1ccc(-n2c(SCC(=O)O)nc3sc4c(c3c2=O)CC(C)(C)SC4)cc1
  1.7	0.695	·	i	-1.2	4.6	·
> CC(C)(C)c1cc(C(=O)NCCCn2ccnc2)cc(C(C)(C)C)c1
  1.2	0.676	-2.3	i	-10.3	1.1	-5.5%
> COc1cccc(C(=O)OCC(=O)NC(C)CCc2ccccc2)c1O (stereo not given)
  2.6	0.633	2.1	i	-14.2	2.1	-6.5%
> CCOCCCNC(=O)c1cc(-c2cccnc2)nc2ccc(S(=O)(=O)N3CCC(C)CC3)cc12
  1.2	0.685	1.3	·	·	1.6	·
> COc1ccccc1-c1c(C(F)(F)F)oc2c(CN(C)C)c(O)ccc2c1=O
  -3.6	0.702	-3.0	i	-2.0	-13.1	·
> Cc1cc(C)n2nc(SC(C)C(=O)N3CCOCC3)nc2n1 (stereo not given)
  4.5	0.713	·	i	-1.3	-2.5	4.2%
> CC(=O)Oc1ccc(C2OC(=O)c3ccccc3N2C(C)=O)cc1 (stereo not given)
  3.0	0.712	3.4	·	-0.2	2.2	3.9%
> COC(=O)c1ccsc1NS(=O)(=O)c1ccccc1
  3.1	0.739	-25.6	i	0.3	5.0	2.8%
> O=C(COC(=O)c1cncc(Br)c1)NCc1ccco1
  -10.7	0.719	-2.6	·	·	0.5	?
> CCCN(C(=O)c1cccc(-n2cccc2)c1)c1c(N)n(Cc2ccccc2)c(=O)[nH]c1=O
  -25.7	0.67	-0.1	i	-0.2	3.9	26.6%
> CCOC(=O)N1CCN(C(=O)c2cc(-n3cnnc3)ccc2Cl)CC1
  -1.7	0.698	-4.6	·	·	1.5	13.1%
> O=C(N/N=C\C=C\c1ccc2c(c1)OCO2)C1COc2cc3ccccc3cc2O1 (stereo not given)
  -1.6	·	18.7*	·	·	·	16.6%
> CN(C)S(=O)(=O)c1ccc(C(=O)Nc2nnc(SCC(=O)NCC3CCCO3)s2)cc1 (stereo not given)
  -1.1	0.711	1.3	i	0.1	7.6	·
> COc1ccc(NS(=O)(=O)c2ccc(NC(=O)C(CCSC)NC(N)=O)cc2)cc1 (stereo not given)
  0.3	0.712	-3.1	i	-7.9	-0.1	·
> O=c1cc(N2CCCCC2)c(-c2ccccc2)n[nH]1
  7.5	0.629	-0.6	i	1.2	2.6	-0.4%

# Two entries from above, tab-delimited:
smiles	HNF4A DNA FP	Ecoli growth	RanGTP-Impb inh	FGF22 binding	MLL AF4-AF9 inh	UCH37 DUB inh	Vif A3G
CCOC(=O)c1c(N/C=C(\C#N)c2nc(-c3ccc(OC(C)=O)cc3)cs2)sc2c1CCC2	3.8	0.724	·	i	6.5	-1.6	·
CCn1ccnc1CN(C)Cc1cn[nH]c1-c1ccc(F)cc1F	-2.8	0.723	-5.4	i	0.1	2.1	-5.5%

# Next structures:
# Screens in order: HNF4A DNA FP	Ecoli growth	RanGTP-Impb inh	FGF22 binding	MLL AF4-AF9 inh	UCH37 DUB inh	Vif A3G
> O=C(COc1ccc(Cl)cc1[N+](=O)[O-])N1CCCCC1
  3.6	0.649	0.0	i	-0.4	5.3	-0.3%
> COc1ccc2nc(C)cc(Nc3ccccc3OC)c2c1
  2.8	·	·	i	2.3	·	-8.2%
> CC(=O)N1CCN(CCN=CC2=C(O)CC(C)(C)CC2=O)CC1
  -3.2	0.696	-7.7	·	·	2.3	?
> COc1cccc(C=NNc2nnc(NN=Cc3cccc(OC)c3OC)c3ccccc23)c1OC
  14.3	·	·	i	11.8	·	·
> CC(C)CC(=O)Nc1ccc(Nc2ccccc2)cc1
  4.6	0.682	-1.3	·	·	4.3	9.8%
> CC(=O)N1CCN(C(=O)COC(=O)c2ccc(S(C)(=O)=O)cc2)CC1
  -1.5	0.648	·	i	-1.0	0.5	-6.6%
> COC(=O)C1=C(C(=O)OC)[C@@H]2N(C)c3ccc(OC)cc3[C@@]23C[C@@H](C(=O)OC)N(C(=O)NCCBr)C3=N1
  ·	·	-0.3	i	9.9	0.6	·
> N#Cc1nc(COc2ccc(F)cc2)oc1N1CCCCC1
  4.5	0.721	5.3	·	-1.4	-0.3	-5.4%
> COc1ccc(C(C)NC(=O)CCc2ccccc2)cc1 (stereo not given)
  0.7	0.672	-0.2	i	1.0	-1.3	·
> C=C1C[C@]23C[C@@]1(O)CC[C@H]2[C@@]12C=C[C@H](O)[C@@](C)(C(=O)O1)[C@H]2[C@@H]3C(=O)O
  1.5&3.6	0.675	·	i	0.2	0.0&1.2	·
> Cc1ccc(-c2nnc(NCc3nc4ccccc4[nH]3)c3ccccc23)cc1S(=O)(=O)N1CCOCC1
  5.0	0.708	0.0	·	·	-6.0	·
> O=C(CN(Cc1ccco1)Cc1cccs1)N1CCN(S(=O)(=O)c2cccc(F)c2)CC1
  1.3	0.679	·	i	-2.3	2.4	6.6%
> Cc1cccc(C)c1NC(=O)CCN1C(=O)C2C3CCC(C3)C2C1=O (stereo not given)
  -1.6	0.726	-1.3	·	·	5.0	-1.4%
> O=C(Nc1ccc(Cl)cc1)N(Cc1nc2ccccc2c(=O)[nH]1)Cc1cccs1
  -1.1	0.665	2.5	·	·	3.6	·

# Assay outcomes from PubChem.
